High-throughput results from PubChem BioAssay.
Mtb bLac sens = beta-lactam sensitization of Mtb H37Rv, H37Rv; M. tuberculosis H37Rv growth with meropenem, percent inhibition; hits of this screen are not shown here; inhibition, % at 25 µM; actives 0.27% (n = 330,000);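 active = about 74% or more and at least 40 points above the plate without the antibiotic, then above 30% in a dose series; inconclusive = first-round hits that could not be retested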;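 note: growth measured after seven days incubation then overnight dye step; 0% = bacteria only wells and 100% = bacteria with antibiotic; twin plates without the antibiotic show which effects depend on it; some results filed as inactive read as strong as hits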
RecA intein inh = Mtb RecA intein splicing inhibitors, primary screen, biochemical, fluorescence, HTS. cell-free RecA intein splicing. actives 0.75% (n = 290,000). Protein RecA (Mycobacterium tuberculosis (strain ATCC 25618 / H37Rv)), P9WHJ3. inhibition, %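 (about 9 µM by stock and volumes)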; in the data active = inhibition above about 30%; inconclusive = no clear call, values can overlap the other calls;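 note: 0% = vehicle wells and 100% = reference inhibitor control wells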
Target sequence (P9WHJ3 whole entry, looked up): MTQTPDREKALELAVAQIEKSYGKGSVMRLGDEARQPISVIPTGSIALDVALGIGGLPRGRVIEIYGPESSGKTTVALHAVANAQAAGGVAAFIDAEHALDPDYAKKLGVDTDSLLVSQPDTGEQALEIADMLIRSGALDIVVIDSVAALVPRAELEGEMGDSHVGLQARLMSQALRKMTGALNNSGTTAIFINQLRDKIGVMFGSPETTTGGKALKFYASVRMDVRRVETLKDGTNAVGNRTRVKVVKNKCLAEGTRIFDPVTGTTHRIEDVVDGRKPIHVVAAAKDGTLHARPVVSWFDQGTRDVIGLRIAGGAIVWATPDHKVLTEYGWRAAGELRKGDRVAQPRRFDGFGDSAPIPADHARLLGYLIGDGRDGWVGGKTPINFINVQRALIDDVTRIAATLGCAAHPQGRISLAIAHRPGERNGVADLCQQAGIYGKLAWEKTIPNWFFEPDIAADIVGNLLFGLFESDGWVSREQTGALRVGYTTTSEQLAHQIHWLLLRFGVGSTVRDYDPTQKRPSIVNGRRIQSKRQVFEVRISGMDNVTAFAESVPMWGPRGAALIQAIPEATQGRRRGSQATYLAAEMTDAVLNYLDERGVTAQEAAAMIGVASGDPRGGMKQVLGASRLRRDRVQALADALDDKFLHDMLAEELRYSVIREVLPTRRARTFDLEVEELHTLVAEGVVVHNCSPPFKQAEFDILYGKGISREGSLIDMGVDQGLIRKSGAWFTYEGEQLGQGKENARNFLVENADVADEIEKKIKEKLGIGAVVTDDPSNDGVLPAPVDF
YopH PTP inh = YopH tyrosine phosphatase inhibitors, primary screen, biochemical, fluorescence Ex485/Em525. YopH tyrosine phosphatase [Yersinia enterocolitica]. inhibition, %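 (about 10 µM by stock and volumes)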. actives 0.16% (n = 140,000). AID 898, 2007;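 active = inhibition of 50% or more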;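 note: controls were vehicle for no effect and minimum signal wells for full effect; inactives centre near -20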
Mtb growth = M. tuberculosis H37Rv growth inhibitors, H37Rv strain (AID 1626); M. tuberculosis H37Rv growth inhibition; higher % means a stronger effect; one-dose inhibition, % at 10 µM; IC50 in µM for titrated hits; actives 0.95% (n = 220,000);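 active = confirmed in a dose series; inconclusive = inhibition above 80% but not taken into the dose series; inactive = below 80% or under 30% at every dose of the series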;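 note: bacteria incubated seven days before Alamar blue readout; 0% = bacteria only wells and 100% = bacteria with antibiotic wells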
Arbovirus inh = antivirals against arbovirus infection, primary screen, cell-based, full library, 10K replicate subset | arbovirus infection cell-based antiviral screen | inhibition, % at 10 µM | actives 0.37% (n = 200,000);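 active = inhibition from about 30%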;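 note: bluetongue infection of BSR cells; cell survival read as ATP light after 72 h; 0% = infected wells without compound and 100% = uninfected wells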
Arbovirus inh repeat = further read-out of Arbovirus inh, marked with its call; inhibition, %; measured here: 10K subset replicate screen; many hits read low in the repeat;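 first of two repeat runs on a subset; 0% = infected and 100% = uninfected wells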
An asterisk follows results filed as active; u = inconclusive; x = no result given. These rows are one share of the data. The share of hits here may be higher or lower than overall.

SMILES | Mtb bLac sens | RecA intein inh | YopH PTP inh | Mtb growth | Arbovirus inh | others
Cc1ccc(CNC(=O)CCS(=O)(=O)c2ccc3c(c2)NC(=O)CS3)cc1 | 6 | -5.0 | x | x | x
CC(C)(C)c1ccc(OCC(=O)N(c2ccccn2)C2CCCCC2)cc1 | -2 | -4.8 | -22 | 8% | 2
Cc1ccc(CCN2C(=O)c3ccccc3C2C(=O)NCc2cccnc2)cc1 (configuration not stated) | -1 | -0.3 | x | 5% | 15
O=C(Cc1ccc(-n2c(=S)[nH]c3ccccc3c2=O)cc1)N1CCN(c2ccccc2)CC1 | 5 | 5.5 | -20 | -4% | 13
CCOc1ccc(-n2c(SCC(=O)Nc3cc(C(=O)O)ccc3Cl)nc3ccccc3c2=O)cc1 | 6 | 4.9 | x | x | x
COc1ccccc1NC(=O)N1CCCC1C(=O)NCc1ccccc1F (configuration not stated) | -1 | -1.8 | -42 | -2% | 7
Cc1ccsc1/C=N/NC(=O)CNC(=O)c1ccco1 | -12 | -5.4 | x | -6% | 3
Nc1ccc2oc(-c3cccc(Br)c3)nc2c1 | 98 | -1.7 | -22 | 4µM* | -13
CCc1cc2cc(C(=O)Nc3ccc(C)cc3)sc2s1 | 99 | 5.8 | -4 | 1.3µM* | 1
CCOc1ccc2oc(-c3ccccc3)c(C(=O)N(C)C)c2c1 | -2 | x | 18 | 5% | -7
COc1ccccc1Cn1c(C)nc2ccccc21 | -3 | 2.4 | x | x | x
CS(=O)(=O)c1ccc2nc(NC(=O)c3ccc(=O)[nH]c3)sc2c1 | 1 | -8.7 | x | -7% | x
N#Cc1c(N)nc2c(c1-c1ccccc1)CCCC2 | 11 | -0.9 | -41 | 0% | 5
CSc1nc(Oc2ccc(C)cc2)cc(C(F)(F)F)n1 | 11 | 4.0 | -28 | 1% | 0
CCc1cc(-c2[nH]ncc2-c2ccc(OC)cc2)c(O)cc1O | -5 | -1.9 | x | x | x
C(=N\Nc1ccccc1)/c1nc2ccccc2s1 | -7 | -6.7 | x | 12% | x
CCOc1ccc(C(=O)N2CCN(S(=O)(=O)c3cccs3)CC2)c(OCC)c1 | -9 | 1.8 | x | x | x
Cc1nn(C)cc1CN(C)C(=O)c1nn2c(c1Cl)NC(c1cccs1)CC2C(F)(F)F (configuration not stated) | -1 | -0.4 | -5 | 7% | 2
COc1ccc([C@H]2/C=C\CN(C(=O)C3CC3)[C@@H](C)C(=O)N2Cc2ccc(F)cc2)cc1 | -2 | -0.2 | x | 3% | x
CCN(CC)C(=O)CSCC(=O)Nc1ccccc1 | 0 | 0.8 | -18 | -11% | 0
CCC(C)NC(=O)c1cn(-c2cccc(OC)c2)c(=O)c2ccccc12 (configuration not stated) | 8 | 5.4 | x | x | x
C#CCN(C)Cc1ccccc1 | -2 | 2.4 | -8 | 1% | 7
O=C(CN1CCN(Cc2ccccc2Cl)CC1)N/N=C/C=C/c1ccccc1[N+](=O)[O-] | -4 | 1.6 | -18 | 0% | -1
C=CCNc1nc(N)c([N+](=O)[O-])c(NCCO)n1 | -2 | 1.3 | x | -8% | x
O=C(O)Cc1ccc2[nH]c3ccc(CC(=O)O)cc3c2c1 | 7 | -0.5 | -26 | -9% | -4

Next part; the last 3 above are carried over.
SMILES | Mtb bLac sens | RecA intein inh | YopH PTP inh | Mtb growth | Arbovirus inh | others
O=C(CN1CCN(Cc2ccccc2Cl)CC1)N/N=C/C=C/c1ccccc1[N+](=O)[O-] | -4 | 1.6 | -18 | 0% | -1
C=CCNc1nc(N)c([N+](=O)[O-])c(NCCO)n1 | -2 | 1.3 | x | -8% | x
O=C(O)Cc1ccc2[nH]c3ccc(CC(=O)O)cc3c2c1 | 7 | -0.5 | -26 | -9% | -4
O=C(O)C(Cc1ccccc1)N1C(=O)CCC1=O (configuration not stated) | 1 | -3.2 | x | 2% | 7
COc1ccc(/C=C2\C(=O)NC(=O)N(CCC3=CCCCC3)C2=O)c(OC)c1 | 1 | 0.4 | -23 | -2% | -8
COC(=O)c1ccccc1Sc1c(/C=N/OC(=O)c2ccccc2)c(C(F)(F)F)nn1C | 2 | -1.1 | -19 | -1% | 6
C/C(=N/NC(=O)c1cnccn1)c1cccs1 | -3 | 2.0 | -19 | 0% | -10
CCOc1cccc(C2/C(=C(\O)c3ccc4c(c3)OCCO4)C(=O)C(=O)N2Cc2ccncc2)c1 (configuration not stated) | 1 | -1.2 | x | x | x
CCc1ccc(C(C(=O)NC2CCCC2)N(Cc2cccnc2)C(=O)c2csnn2)cc1 (configuration not stated) | 7 | 1.3 | x | x | x
COc1ccc(NC(=O)CCCn2c(=O)c3sccc3n(Cc3ccccc3C)c2=O)cc1 | 5 | 2.6 | -42 | 2% | 12
CCOC(=O)Cc1csc(NC(=O)COc2ccc3ccccc3c2)n1 | 70 | 8.2 | 2 | 18% | 7
Cc1ccccc1C(=O)N1CCCN(C(=O)c2ccccc2C)CC1 | 5 | 0.7 | -2 | -9% | 1
CN(c1ccccc1C(=O)N1CCOCC1)S(C)(=O)=O | 10 | x | 27 | -3% | 9
CCOc1ccc(C(C)=O)cc1N1C(=O)C2C3C=CC(C3)C2C1=O (configuration not stated) | -4 | -0.3 | -6 | -10% | -3
Cc1ccc(S(=O)(=O)NCCC(=O)O)cc1 | -6 | -3.9 | -22 | -8% | 8
O=C(O)c1nnn(-c2cccc(C(F)(F)F)c2)c1-c1ccccc1 | -3 | 0.8 | x | -7% | x
COc1ccccc1OCC(=O)N/N=C1/SCC(=O)N1Cc1ccccc1 | 5 | 0.0 | 5 | -6% | -5
O=CN1CCN(C2CC(=O)N(c3ccc(Br)cc3)C2=O)CC1 (configuration not stated) | 18 | 0.7 | -34 | 0% | 3
Cc1ccc(SCC(=O)NCCc2ccc(F)cc2)cc1 | -3 | 0.8 | x | x | x
CCN(C(=O)c1cnc(OC)cc1C(F)(F)F)c1ccc(Cl)cc1Cl | -5 | 2.9 | x | 0% | x
CSCC[C@H](NC(=O)OCc1ccccc1)C(=O)O | -2 | -1.8 | -18 | 0% | 2
Cn1cc(/C=C/C(=O)N2CCCC(C(=O)c3ccc(C(C)(C)C)cc3)C2)cn1 (configuration not stated) | 77 | -2.1 | x | -6% | -11
COc1ccc(C(=O)OC2CCN(C)CC2)cc1 | -11 | -0.3 | 3 | -7% | -5
CC(C(=O)Nc1ccc(S(=O)(=O)N2CCOCC2)cc1)N(c1ccccc1)S(C)(=O)=O (configuration not stated) | -11 | 2.0 | -27 | -1% | -1
O=C(CSc1nnc(-c2cccnc2)n1-c1ccc(SC(F)F)cc1)N1CCCc2ccccc21 | -3 | -2.5 | -10 | 3% | 8
O=C(c1ccccc1Cl)N(C(=O)c1ccccc1Cl)c1nccc(-c2cccs2)n1 | 22 | -0.9 | -21 | 31% | 6
COCCC(=O)N1CCC(Oc2ccc(C(=O)N(C)C(C)c3ccon3)cc2)CC1 (configuration not stated) | -2 | 0.5 | x | x | x
COCCn1nnnc1C(C(C)C)N1CCOCC1 (configuration not stated) | 9 | -4.3 | -27 | -3% | 7
Next part.
SMILES | Mtb bLac sens | RecA intein inh | YopH PTP inh | Mtb growth | Arbovirus inh | others
COCCCn1cnnc1SCc1nc2sc(C(C)=O)c(C)c2c(=O)[nH]1 | -3 | -2.9 | x | 6% | x
CCOc1ccc(C(=O)N/N=C/c2ccc(SC)cc2)cc1 | -4 | 1.4 | -13 | -3% | 5
Cc1cc(N(C)N)nc(NC(=O)NS(=O)(=O)c2ccccc2Cl)n1 | -3 | -3.7 | x | x | x
C/C=C/c1ccc(OCCCNC(C)CC)c(OC)c1 (configuration not stated) | -6 | x | -6 | -1% | -6
COc1ccc(-c2cc(=O)oc3c(C)c(OC(C)C(C)=O)ccc23)cc1 (configuration not stated) | 0 | 8.2 | x | x | x
COc1ccc(/C=C2\Sc3ccc(C(=O)NCCCN4CCCC4)cc3N(C)C2=O)cc1OC | 2 | 1.9 | x | x | x
CC(C)(C)OC(=O)N/N=C/c1ccc(Br)cc1 | -4 | 0.8 | x | u | 7
Cc1ccc(Cc2nc(-c3ccccn3)no2)cc1 | -4 | 0.5 | 8 | -2% | 2
Cc1cc2c(C)ccc(C)c2nc1SCC(=O)c1cccs1 | 11 | -1.7 | -48 | 2% | 12
CCOc1cc(C2C(C#N)=C(N)Oc3n[nH]c(-c4ccccc4)c32)ccc1O (configuration not stated) | -3 | 83* | 3 | -10% | -2
COc1cc2c(cc1OC)C(c1ccc3c(c1)OCO3)CC(=O)N2 (configuration not stated) | -15 | 0.4 | -5 | -2% | 5
Cc1ccc(S(=O)(=O)N[C@H](C(=O)OCC(=O)NC(=O)Nc2ccc3c(c2)OCCO3)C(C)C)cc1 | -3 | -2.1 | -22 | 18% | 9
Nn1cnnc1SCC(=O)Nc1ccc(C2CCCCC2)cc1 | 1 | -1.1 | -36 | 7% | 2
CC(=O)c1sc(NC(=O)COc2ccc(C)c(C)c2)nc1C | -6 | 0.1 | -21 | 2% | 6
Cc1ccc(COc2ccsc2-c2n[nH]c(=S)n2C)cc1 | -17 | 0.6 | -24 | 2% | -16
Cc1ccccc1NS(=O)(=O)c1ccc(C(=O)NCC(c2ccco2)N(C)C)cc1 (configuration not stated) | 0 | -2.5 | x | x | x
CCCn1c(C(C)Nc2nc(-c3ccc(C)cc3)cs2)nc2cc(Cl)c(N3CCCCC3)cc21 (configuration not stated) | 2 | -3.0 | x | x | x
C=CCN(CC=C)C(=S)NC(=O)c1ccc(-c2ccccc2)cc1 | 98 | 5.8 | -4 | u | -15
O=S(=O)(NC1CCCCC1)c1ccc(Br)cc1 | 11 | -2.8 | -26 | 3% | 8 | Arbovirus inh repeat=8
C/C(CC(=O)Nc1cc(C)ccn1)=N\NC(=O)c1ccccc1C | 7 | 50* | x | -9% | 0
Cc1ccc(CC(=O)Nc2ncc([N+](=O)[O-])s2)cc1 | -1 | 14 | x | -3% | 16
Cc1ccc(NC2CCCN(C(=O)c3ccoc3C)C2)cc1C (configuration not stated) | 2 | -2.3 | x | x | x
O=C(Nc1ccccc1N1CCOCC1)c1ccc(S(=O)(=O)NCc2ccco2)cc1 | 7 | 1.8 | x | 7% | 18
Cc1nc2nc[nH]n2c(=O)c1NS(=O)(=O)c1ccc([N+](=O)[O-])cc1 | 0 | -0.7 | x | 5% | 0
CC1CN(C(=O)COC(=O)c2ccc(N(C)C)cc2)CC(C)O1 (configuration not stated) | -16 | x | x | 8% | 2

Quoted at random: 4 records from the list.
SMILES | Mtb bLac sens | RecA intein inh | YopH PTP inh | Mtb growth | Arbovirus inh | others
Cc1ccc(SCC(=O)NCCc2ccc(F)cc2)cc1 | -3 | 0.8 | x | x | x
CN(c1ccccc1C(=O)N1CCOCC1)S(C)(=O)=O | 10 | x | 27 | -3% | 9
O=C(O)C(Cc1ccccc1)N1C(=O)CCC1=O (configuration not stated) | 1 | -3.2 | x | 2% | 7
Cc1ccsc1/C=N/NC(=O)CNC(=O)c1ccco1 | -12 | -5.4 | x | -6% | 3

More entries follow.
SMILES | Mtb bLac sens | RecA intein inh | YopH PTP inh | Mtb growth | Arbovirus inh | others
CCC(C)c1ccc(S(=O)(=O)N2CCN(C(C)CC(=O)O)CC2)cc1 (configuration not stated) | -3 | -1.0 | x | 7% | 12
CCC(C)(C)NC(=O)C1CC(=O)N(CCc2ccc(F)cc2)C1 (configuration not stated) | 2 | 0.4 | x | x | x
Cc1ccc(C)c(N(C(=O)CNC(=O)c2ccco2)C(C(=O)NC2CCCCC2)c2ccncc2)c1 (configuration not stated) | -1 | -2.6 | x | x | x
O=C1c2cccnc2C(=O)N1Cc1ccc(S(=O)(=O)N2CCOc3ccc(Cl)cc32)cc1 | 0 | 2.2 | x | x | x
CCOC(=O)c1c(CN(C)C)n(-c2ccc(C)cc2)c2cc(Br)c(O)cc12 | -5 | -3.0 | -15 | 12% | -5
CC(=O)Nc1ccc(S(=O)(=O)Nc2nc3ccc(C)cc3s2)cc1 | -4 | -4.1 | -13 | -16% | 5
N#CC(C#N)=NNc1ccc(S(=O)(=O)N2CCCCC2)cc1 | -3 | 58* | -21 | -7% | 4
COCc1[nH]nc2c1C(c1ccccc1OC)C(C#N)=C(N)O2 (configuration not stated) | 0 | 62* | x | -7% | -2
Fc1ccc(NC(=S)Nc2cccc(Cl)c2)cc1 | 17 | 3.9 | -2 | 0% | 14
